# Mtb MenB inh: M. tuberculosis MenB inhibitors, primary screen, biochemical, absorbance; MenB enzyme assay, absorbance read-out; some hits fall short of the stated cut; inhibition, %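 (about 12 µg/mL by stock and volumes)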; 0.43% of 100,000 active;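 active = mean of two replicates above 30%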;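 note: 0% = no compound and 100% = wells with inactive enzyme; the first replicate is given; strong numbers were not always called active; inactives centre near -10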
# Polio RdRp inh: poliovirus RdRp elongation inhibitors, primary screen, biochemical, fluorescence polarization, total intensity. Genome polyprotein (Poliovirus type 1 (strain Mahoney)), P03300. poliovirus polymerase elongation; hits give low values. % elongation, % (compound at 16.7 µg/mL). 0.66% of 150,000 active; in the data active = % elongation below about 90%; note: some results filed as inactive read as strong as hits
# Target sequence (P03300 1749-2209 limits assumed): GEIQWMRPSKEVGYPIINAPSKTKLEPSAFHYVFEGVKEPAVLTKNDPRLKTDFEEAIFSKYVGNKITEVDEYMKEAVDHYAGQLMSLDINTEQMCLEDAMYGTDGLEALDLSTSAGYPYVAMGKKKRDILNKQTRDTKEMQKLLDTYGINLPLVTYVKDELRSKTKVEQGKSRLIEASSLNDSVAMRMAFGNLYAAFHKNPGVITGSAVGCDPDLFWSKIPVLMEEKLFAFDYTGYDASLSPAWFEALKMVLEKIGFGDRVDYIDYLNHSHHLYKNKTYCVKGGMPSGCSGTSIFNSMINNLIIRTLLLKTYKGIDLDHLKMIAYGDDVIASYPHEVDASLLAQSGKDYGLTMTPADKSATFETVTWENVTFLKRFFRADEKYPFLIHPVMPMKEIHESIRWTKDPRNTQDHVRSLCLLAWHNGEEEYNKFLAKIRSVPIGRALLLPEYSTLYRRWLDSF
# Mtb MbtI inh: MbtI salicylate synthase inhibitors, primary screen, biochemical, fluorescence intensity | purified MbtI enzyme, fluorescence intensity read-out | inhibition, %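 (about 17 µg/mL by stock and volumes)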 | 0.89% of 100,000 active | P9WFX0;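 active = above 50% in both replicates, above 80% if mildly self-fluorescent; inactive = the rest, strongly fluorescent compounds included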;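 note: 0% = mean of negative and 100% = mean of positive controls; one replicate is shown; some compounds called inactive have numbers as strong as hits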
# Target sequence (P9WFX0 whole entry, looked up): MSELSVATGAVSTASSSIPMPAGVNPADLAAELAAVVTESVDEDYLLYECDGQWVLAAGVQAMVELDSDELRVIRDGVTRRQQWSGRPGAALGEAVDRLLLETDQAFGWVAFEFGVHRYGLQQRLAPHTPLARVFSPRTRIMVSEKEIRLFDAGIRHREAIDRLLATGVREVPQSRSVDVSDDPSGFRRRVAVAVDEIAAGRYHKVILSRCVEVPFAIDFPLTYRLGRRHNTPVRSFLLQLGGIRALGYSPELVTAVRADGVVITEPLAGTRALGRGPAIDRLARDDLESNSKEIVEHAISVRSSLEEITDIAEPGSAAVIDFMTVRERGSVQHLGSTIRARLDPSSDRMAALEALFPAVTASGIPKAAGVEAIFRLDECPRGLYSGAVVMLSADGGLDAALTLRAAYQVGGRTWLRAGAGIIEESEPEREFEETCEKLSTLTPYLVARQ
# Polio RdRp inh intensity: second read-out of Polio RdRp inh, no call of its own (marks repeat the call); % elongation; measured here: total intensity read-out; formula for this scale not given here;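 total fluorescence in place of polarization; lower means less elongation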
# An asterisk follows results filed as active; · = not tested or not shown; & = joins results of further samples.
# Screens in order – Polio RdRp inh intensity	Mtb MbtI inh	Mtb MenB inh	Polio RdRp inh
1. Cc1c(O)ccc(/C(Cc2ccc3ccccc3n2)=N\N)c1O
    109	19	-48	116
2. CC1(C)Oc2ccc3ccc(=O)oc3c2C/C1=N/O
    103	115	7	101
3. CS(=O)(=O)N1CCSC1c1ccc(Cl)cc1Cl (stereo not given)
    103	6	3	103
4. CCCn1c(=O)c(-c2nc3ccccc3[nH]2)c(O)c2ccccc21
    102	90	-32	102
5. c1ccc(C2=NCCCN2)cc1
    107	-9	-13	105
6. CCN(C(=O)N(C)C)c1ccccc1C
    101	-4	-11	99
7. CCOC(=O)CN1C(=O)S/C(=C/c2ccc3c(c2)n(C)c(=O)n3C)C1=O
    106	-4	-1	102
8. COCCCn1c(C)nnc1SCc1ccc(C(C)(C)C)cc1
    100	-7	-79	106
9. Cc1ccc(C=Nc2cc(Cl)ccc2O)o1
    98	4	·	102
10. CC(=O)Oc1ccc(C(=O)N(Cc2nc(-c3cccc(C)c3)no2)C(C)C)cc1
    101	5	-23	103
11. O=C(Oc1ccccc1OC(=O)C1C2CCCCC21)C1C2CCCCC21 (stereo not given)
    106	·	-16	101
12. Cc1cc(C)nc(SC(C(=O)c2ccccc2)c2ccccc2)n1 (stereo not given)
    97	2	·	99
13. CCN(CCO)c1nc(NC2CCCCC2)c2cnn(C)c2n1
    106	-22	-19	105
14. CC(Sc1nc2ccccc2c(=O)n1Cc1ccco1)C(=O)c1ccc(F)c(F)c1 (stereo not given)
    104	11	13	110
15. Cc1cc(C(=O)O)c(CSCc2cc(C(=O)O)oc2C)o1
    91	·	-9	96
16. CC1(C)CC(=O)C(C2(O)C(=O)NC(=O)NC2=O)=C(O)C1
    56*	-3	-86	56*
17. COc1ccc2oc(=O)c(C(=O)NC(C)(C)C)cc2c1
    94	·	-1	99
18. CCCCNC(=O)c1ccccc1NC(=O)CC
    102	-95	-87	103
19. NC(=O)C1CCN(C(=O)c2ccco2)CC1
    104	·	-15	110
20. COC(=O)c1ccc(OCC(=O)NCC(F)(F)F)cc1
    91	5	-30	97
21. N#CC1=C(N)OC(N)=C(C#N)C1c1cc(Br)cs1
    169	·	-125	152
22. CC[n+]1c(C)oc2ccc(OC)cc21
    102	58	-10	101
23. NS(=O)(=O)c1ccc(CCNC2CC(=O)N(Cc3cccs3)C2=O)cc1 (stereo not given)
    102	-3	-9	101
24. Cc1[nH]c(=S)n(CC2CCCO2)c1C (stereo not given)
    90	95*	12	95
25. CCN(CC)C1=C(C(=O)c2ccccc2)NS(=O)(=O)c2ccccc21
    103	-7	-38	101
26. CCOc1ccc(OCC(=O)NCCc2nc3ccccc3[nH]2)cc1
    100	-4	-43	102
27. COc1cccc(N2C(=O)/C(=C/c3ccsc3)C(=O)NC2=S)c1
    98	30	-49	104
28. COc1ccccc1C(=O)n1nc(C)cc1C
    103	-65	-5	100
29. COC(=O)C1=C(C)NC2=C(C(=O)CC(c3ccccc3)C2)C1c1ccccc1OC(C)C (stereo not given)
    106	25	-62	104
30. O=C(Oc1c(CN2CCOCC2)cc(Cl)c2cccnc12)c1ccccc1
    106	-8	-27	108
31. C=C(C)CC1N(CCc2ccccc2)C(=O)C2C(C(=O)O)C3C=CC21O3 (stereo not given)
    101	-9	-58	104
32. COc1cccc(=O)c2c(C)oc(C)c12
    195	13	11	76
33. C=C1C2CC3(C[C@H]4C5C6(C3CC2=O)C4[N+]([O-])(CC)C[C@]5(C)CC[C@@H]6O)[C@@H]1O (stereo not given in full)
    105	1	-5	100
34. CC(NC(=O)Cn1c(=O)oc2cc(S(=O)(=O)N(C)C)ccc21)c1ccccc1 (stereo not given)
    111	-2	-3	106
35. CCOC(=O)c1cc2cccc(Cl)c2[nH]1
    103	33	1	101
36. COc1ccccc1-c1c(C)nn2c(NCCN3CCN(Cc4ccccc4)CC3)cc(C)nc12
    104	7	-15	100
37. CC(C)c1cc(C(C)C)c(S(=O)(=O)N2CCCC2)c(C(C)C)c1
    104	-20	-30	102
38. O=C1C(=Cc2cn[nH]c2-c2ccccc2)C(=O)c2ccccc21
    105	1	-57	97
39. Cc1ccc(N2CCN(C(=O)CN(c3ccc(C)cc3)S(=O)(=O)c3c(C)n[nH]c3C)CC2C)cc1 (stereo not given)
    104	9	-5	101
40. C=CCc1ccccc1OCC(CN1CCCCC1)OC(C)=O (stereo not given)
    104	-22	-8	101
41. NN/C(=N/S(=O)(=O)c1ccccc1)N1CCCC1
    104	-1	-30	103
42. O=C1NC(=O)N(c2ccccc2)C(=O)/C1=C\c1ccc(C(=O)O)cc1
    102	14	-29	101
43. O=C(c1ccccc1)N(Cc1nc(-c2ccccc2)no1)C1CCCCC1
    101	-4	-1	100
44. Cc1ccc(S(=O)(=O)Nc2cccc3c(O)cccc23)cc1
    101	2	·	103
45. COc1ccc(N2CCN(CCNC(=O)c3cc(-c4ccccn4)nc4ccccc34)CC2)cc1
    105	-18	4	100
46. Cc1ccc(S(=O)(=O)N(c2ccccc2)C2CC(C)Nc3ccccc32)cc1 (stereo not given)
    103	4	-8	101
47. O=C(COC(=O)c1ccc(N2C(=O)c3ccccc3C2=O)cc1)Nc1ccc(N2CCOCC2)cc1
    111	-3	-3	103
48. COc1ccc(CCC(=O)Nc2ccc(-c3noc(-c4ccccc4Br)n3)cc2)cc1
    101	-9	-70	103
49. CSc1nnc(-c2ccccc2O)n1-c1ccccc1
    102	-11	-81	99
50. Cc1ccc(C(=O)OC[C@H]2O[C@H](c3nnc4ncccn34)C[C@@H]2OC(=O)c2ccc(C)cc2)cc1
    100	-2	-26	105
51. NC(=O)COc1ccc(-c2noc(COc3cccc(Cl)c3)n2)cc1
    105	-5	-18	105
52. O=C(Nc1ccc(-c2nc3ccc(NC(=O)C4CC4)cc3[nH]2)cc1)C1CC1
    93	·	-35	106
53. O=C(c1ccco1)c1cc2cc(Br)ccc2oc1=O
    100	-8	-61	98
54. O=C(NCc1csc(-c2cccs2)n1)c1cc(F)cc2c1OCOC2
    92	-52	-25	100
55. Cc1cc(OCC(=O)Oc2c(C)cc(Br)cc2Cl)no1
    105	0	8	103
56. CCc1cc(SC(C)C(=O)c2c(N)n(C)c(=O)n(C)c2=O)n2c(nc3ccccc32)c1C#N (stereo not given)
    111	-5	-26	105
57. C1CCN2CC3CC(CN4CCCC[C@@H]34)C2C1 (stereo not given in full)
    101	13	-26	99
58. COCc1nnc(NC(=O)/C=C/c2ccc(OC)cc2)s1
    100	12	-25	103
59. CCN(CC)C(=O)c1cc2c(n(-c3ccc(OC)cc3)c1=O)CC(C)(C)CC2=O
    102	8	-30	102
60. CCN(CC)S(=O)(=O)c1ccc(C(=O)NCCn2c(C)cc3ccccc32)cc1
    98	4	1	102

# Other results:
# Screens in order – Polio RdRp inh intensity	Mtb MbtI inh	Mtb MenB inh	Polio RdRp inh
61. CN(C)/C=N/NS(=O)(=O)c1ccccc1
    104	8	-13	103
62. Cc1cc(NNC(=S)S)nc(N)n1
    99	·	16	101
63. CCn1nc(-c2ccccc2)cc1-n1cnc2ccccc21
    107	-10	·	101
64. CN1C=C(C(N)=O)C=C/C1=C(/C#N)c1nc2ccccc2s1
    102	-4	-20	101
65. C=CCN1C(=O)/C(=C\c2ccccc2Cl)N=C1c1ccccc1
    114	0	4	108
66. COC(=O)C(CC(C)C)NC(=O)c1ccccc1Cl (stereo not given)
    104	-1	11	100
67. COc1cccc(/C=C2/SC(=Nc3ccccc3)N(CCc3ccccc3)C2=O)c1O
    104	-3	4	102
68. O=C(Cc1c[nH]c2ccccc12)N1CCN(c2ccccc2)CC1
    ·	-14	9	·
69. COc1nc(-c2ccccc2Cl)c2cc(Br)ccc2n1
    103	7	-25	102
70. FC(F)(F)Oc1ccc(N=Cc2ccc[nH]2)cc1
    117	·	5	105
71. Cc1cccc(C=Nc2c(C)n(C)n(-c3ccccc3)c2=O)c1
    101	·	5	97
72. COC(=O)c1scc(C)c1NN1C(=O)c2ccccc2C1=O
    102	-9	-11	101
73. Cc1ccc(C)c(NC(=O)NCCCN2CCc3ccccc3C2)c1
    104	6	10	98
74. CCc1ccc(N2NC(=O)C(=C(C)C)C2=O)cc1
    98	1	-12	104
75. O=C(OCCN1CCCCC1)c1cccc(F)c1
    112	·	-2	104
76. COC(=O)c1cc(-c2ccco2)nc2c1c(=O)n(C)c(=O)n2CC(C)C
    109	105	9	102
77. COC(=O)c1sc(NC(=O)c2ccco2)c(C#N)c1C
    97	81	-7	97
78. CCC(C(=O)OC)n1c(-c2ccccc2)nc2ccccc2c1=O (stereo not given)
    101	-2	-1	104
79. O=C(c1cnc2cc3c(cc2c1)OCCO3)c1ccccc1O
    110	-9	-12	107
80. c1ccc(C(c2nnnn2C2CCCC2)N2CCN(c3ccccc3)CC2)cc1 (stereo not given)
    104	-10	2	102

# Shown with each value named: four of the compounds above.
71: Cc1cccc(C=Nc2c(C)n(C)n(-c3ccccc3)c2=O)c1
  Polio RdRp inh intensity: 101
  Mtb MbtI inh: ·
  Mtb MenB inh: 5
  Polio RdRp inh: 97

72: COC(=O)c1scc(C)c1NN1C(=O)c2ccccc2C1=O
  Polio RdRp inh intensity: 102
  Mtb MbtI inh: -9
  Mtb MenB inh: -11
  Polio RdRp inh: 101

73: Cc1ccc(C)c(NC(=O)NCCCN2CCc3ccccc3C2)c1
  Polio RdRp inh intensity: 104
  Mtb MbtI inh: 6
  Mtb MenB inh: 10
  Polio RdRp inh: 98

74: CCc1ccc(N2NC(=O)C(=C(C)C)C2=O)cc1
  Polio RdRp inh intensity: 98
  Mtb MbtI inh: 1
  Mtb MenB inh: -12
  Polio RdRp inh: 104

# Further structures follow.
# Screens in order – Polio RdRp inh intensity	Mtb MbtI inh	Mtb MenB inh	Polio RdRp inh
81. O=C(Oc1ccc2c(c1)OCO2)c1c(Cl)cccc1Cl
    107	-2	·	105
82. COc1ccc(/C=N/n2c(=S)[nH]nc(C)c2=O)cc1
    103	10	-11	102
83. O=C(OCc1ccccn1)C1CCCCN1S(=O)(=O)c1ccccc1 (stereo not given)
    111	-3	-12	98
84. CCCn1c(N)c(C(=O)CSc2nnc(Nc3cccc(OC)c3)s2)c(=O)n(C)c1=O
    ·	3	-10	·
85. CC1(C)CC(=O)C2=C(C1)NC(Nc1nc3ccccc3o1)=NC2c1ccccc1 (stereo not given)
    99	-5	1	98
86. CN(C)C(CNC(=O)Cc1n[nH]c(=O)c2ccccc12)c1cccs1 (stereo not given)
    96	-2	-17	100
87. CN(C(=O)C1CC1)c1ccccc1C(=O)NCc1ccccc1
    103	-28	-48	101
88. O=C(Nc1ncc(C(O)(C(F)(F)F)C(F)(F)F)s1)c1ccccc1Cl
    110	-10	-22	105
89. Cc1ccc(C(=O)Cn2c(-c3ccccc3)noc2=O)cc1
    102	-3	-59	98
90. CCOC(=O)c1sc(NC(C)=O)cc1C
    102	5	-7	102
91. Cc1c2c(n3c(nc4ccccc43)c1C#N)SCC2
    102	-3	16	100
92. CCNC(=O)c1ncoc1-c1cccs1
    102	128	15	98
93. C/C=C(/C(=C/C)c1ccc(O)cc1)c1ccc(O)cc1
    99&103	-14&-12	0&5	102&100
94. CN(C)S(=O)(=O)c1cccc(C(=O)NC(C)(C)C)c1
    105	-10	·	102
95. Cc1nnc(SCC(=O)N2CCCC2)s1
    95	-3	-25	103
96. Cc1nc2ccccc2c(=O)n1NC(=O)C1CCCCC1
    104	-4	-1	100
97. Oc1ccc(C2CC(c3ccccc3O)=Nc3ccccc3S2)cc1 (stereo not given)
    110	22	-31	108
98. CC(C)CCNC(=O)C1CCN(C(=O)N(C)C)CC1
    99	12	7	103
99. CCNC(=O)CC1C(=O)N(c2ccccc2)C(=O)N1Cc1ccc(C)cc1 (stereo not given)
    100	-6	-26	103
100. O=C(CS)Nc1ccccc1F
    103	12	-10	98
101. O=c1[nH]c2cc3c(cc2[nH]c1=O)OCCO3
    104	-48	-16	100
102. COc1ccc2oc(=O)c(C(=O)NCc3ccc4c(c3)OCO4)cc2c1
    104	12	10	103
103. O=C(NCc1ccccn1)c1nnc(-c2cccc(Cl)c2)o1
    104	-9	-1	103
104. COc1ccccc1NC(=O)CC(=O)Nc1ccccc1OC
    108	-9	·	103
105. COC(=O)C1=C(C)NC(=O)NC1c1cn(-c2ccccc2)nc1-c1ccc(F)cc1 (stereo not given)
    103	6	5	102
106. Cc1nnc(C)n1/N=C/C=C\c1ccco1
    110	·	-23	108
107. CCOC(=O)c1nn(-c2cccc(C(F)(F)F)c2)cc1O
    92	-3	·	98
108. COc1cc(CC(=O)OCC(N)=O)cc(OC)c1OC
    89	-4	-42	101
109. Fc1ccccc1C=Nc1cccc2ccccc12
    104	112	-38	102
110. CC(=O)Nc1ccc(OC(F)(F)C(F)F)c(NC(C)=O)c1
    111	-14	-6	106
111. Cc1ccc(S(=O)(=O)N2CCC(C(=O)OCC(=O)c3cc(C)n(C4CC4)c3C)CC2)cc1C
    105	6	-12	104
112. O=C(CN1CSCC1=O)Nc1cccc(C(=O)NC2CC2)c1
    97	5	2	99
113. Cc1cc(/C=C(/C#N)c2ccc(C(=O)O)cc2)c(C)n1-c1ccc(S(N)(=O)=O)cc1
    100	8	-43	99
114. Cc1cc(C)c2c(CC(=O)Nc3c(C(=O)c4ccccc4)oc4ccccc34)coc2c1
    104	-6	-10	104
115. Nn1c(COc2cccc(Br)c2)nnc1SCC(=O)N1CCOCC1
    100	8	-13	100
116. CCOC(=O)c1cnc(SCC(=O)OCC(=O)NC2(C#N)CCCC2)nc1N
    111	19	-33	107
117. CCCN(Cc1c(F)cccc1F)CC1CC1
    101	-14	-28	104
